High-throughput results from PubChem BioAssay.
AID504770 = E. coli YBA685 growth inhibition, screen for V. cholerae RctB inhibitors; E. coli YBA685 rctB-dependent plasmid, OD600 growth, 3 h; stronger effect = lower value; z-score (concentration not given with the values); 130,000 compounds, 0.27% hits;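 active means z-score under -2 on both plates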;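 further: wells of about 30 µL received 100 nL stock; score is relative to mean and SD of the test wells; the first replicate is given; strong numbers were not always called active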
CapD inh = inhibitors of Bacillus anthracis CapD enzyme; purified CapD enzyme, fluorescence intensity read-out; stronger effect = lower value; some hits fall short of the stated cut; z-score (no concentration beside the values); 140,000 compounds, 0.23% hits; AID 492967;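 active means z-score under -4 in either of two replicates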;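 further: stock transfer was 100 nL into about 40 µL; score is relative to mean and spread of the plate; one replicate is shown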
An asterisk follows results filed as active.

CCOC(=O)N1CCC(NC(=O)c2cc3nc(-c4ccc5c(c4)OCO5)cc(C(F)(F)F)n3n2)CC1 was read as CapD inh -0.41.
Screening c1ccc(-c2nnc(Cc3cn4ccsc4n3)o2)cc1 returned AID504770 -0.05.
For COc1cc(/C=C(\C#N)C(=O)NCc2cccnc2)ccc1O the results were AID504770 -0.25 and CapD inh -0.58.
`CCOC(=O)C1=C(C)NC2=C(C(=O)CC(c3ccc(OC)c(OC)c3)C2)C1c1cc(OC)c(OC)cc1OC` (centres undefined) gave CapD inh 1.3.
Screening CC(C)CNc1cc(C(C)C)c(C#N)c2nc3ccccc3n12 returned AID504770 -0.5 and CapD inh 32.
For CCOC(=O)c1c(-c2c(Cl)cccc2Cl)noc1N the results were AID504770 -0.3 and CapD inh -0.085.
`O=C(N/N=C/c1cccnc1)c1ccc(CN2CCOCC2)cc1` gave AID504770 -0.65 and CapD inh -0.33.
CC(C)C(C(=O)O)N1C(=O)/C(=C/c2ccc(Cl)cc2Cl)SC1=S (centres undefined) was read as CapD inh -1.2.
`CN(C)S(=O)(=O)c1ccc(S(=O)(=O)N2CCN(C=O)CC2)cc1` gave AID504770 0.65.
`CC1CN(CCC(=O)Nc2sc3c(c2C#N)CCC3)CC(C)O1` (centres undefined) gave AID504770 -1.5 and CapD inh -0.06.
Screening CCOC(=O)c1ccc(-n2c(C)cc(/C=N/O)c2C)cc1 returned AID504770 1.7 and CapD inh -0.74.
`S=C(NCCN1CCOCC1)N1CCC(Cc2ccccc2)CC1` gave AID504770 -0.25.
Screening Cc1cc(C(=O)NCc2ccco2)c(C)o1 returned AID504770 0.05 and CapD inh 0.26.
For O=C(CSc1nc(Nc2ccc(F)cc2)c2ccccc2n1)NCC1CCCO1 (centres undefined) the results were CapD inh -0.19.
For CC(C)(C)C(=O)Nc1ccc(-c2cc3cc(Cl)ccc3o2)cc1 the results were AID504770 -0.3 and CapD inh 30.
`O=C(NCCSc1ccccc1)c1cccnc1Oc1ccccc1` gave AID504770 -1 and CapD inh -0.6.
`CSc1nnc(-c2c[nH]c3ccccc23)n1C` gave AID504770 -0.25 and CapD inh 0.62.
`O=C(CN1C(=O)CSC1=O)CN1C(=O)CSC1=O` gave AID504770 2.1.
Screening COc1ccc2c(c1)C(C)CC(C)(C)N2C(=O)CSc1ncn[nH]1 (centres undefined) returned AID504770 0.45 and CapD inh -0.01.
For CCC(C)NC(=O)C1CCN(S(=O)(=O)CC)CC1 (centres undefined) the results were AID504770 0.15 and CapD inh 0.76.
Cc1cc(-c2ccc(S(=O)(=O)NCCN3CCCC3)s2)n[nH]1 was read as AID504770 -0.65 and CapD inh 1.2.
Screening CC(=O)Nc1ncnc2sc3c(c12)CCCC3 returned AID504770 -0.35 and CapD inh -8.8*.
CCN1CCC(N(Cc2ccco2)C(=O)Nc2cccc(C(F)(F)F)c2)CC1 was read as AID504770 -0.3 and CapD inh -0.07.
N#C/C(=C\Nc1ccccc1Cl)S(=O)(=O)c1ccccn1 was read as AID504770 -0.65 and CapD inh -0.45.
CNC(=O)NNC(=O)c1ccccc1 was read as CapD inh 0.53.
`FC(F)(F)c1cccc(-c2ccc(-c3csnn3)o2)c1` gave AID504770 -0.5.
`C#C[C@]1(O)CCC2C3CCC4=Cc5oncc5C[C@]4(C)C3CC[C@@]21C` (some centres undefined) gave AID504770 0.25 and CapD inh 0.045.
`N#CC(C(=O)OC1CCCCC1)c1nc2ccccc2nc1N1CCCCC1` (centres undefined) gave AID504770 0.8.
Screening CN(C(=O)COc1ccccc1)c1nc(-c2ccccc2)cs1 returned AID504770 1.4.
O=C1CCC(C(=O)OC(C(=O)Nc2ccc(Cl)c(C(F)(F)F)c2)c2ccccc2)N1 (centres undefined) was read as AID504770 -0.2 and CapD inh 0.39.
Screening CCSc1nnc(CNc2ccc(F)cc2)n1CC1CCCO1 (centres undefined) returned AID504770 0.6.
For CCCc1nc2ccc(NC(C)=O)cc2[nH]1 the results were AID504770 -0.7 and CapD inh -0.52.
Screening CC1(C)Cc2c(sc3nc(SCC#N)n(-c4ccccc4)c(=O)c23)CO1 returned CapD inh -0.005.
COc1ccc(C(=O)Nc2cccc3nsnc23)cc1OC was read as AID504770 0.7.
`Cc1ccc(S(=O)(=O)c2nc(S(C)(=O)=O)sc2NC2CCS(=O)(=O)C2)cc1` (centres undefined) gave AID504770 -0.35.
`Cc1ccc(/C=C2\C(=O)Nc3ccc(Br)cc32)o1` gave AID504770 1.1 and CapD inh -0.36.
Screening CN1CCN(S(=O)(=O)c2ccc(Oc3ccc(Oc4ccccc4)cc3)nc2)CC1 returned AID504770 0.75.
Screening Cc1noc2ncnc(N3CCCC(C(=O)Nc4ccc5c(c4)OCO5)C3)c12 (centres undefined) returned AID504770 -0.55 and CapD inh 0.085.
Cn1c(=O)c(-c2nc(C(C)(C)C)cs2)cn(-c2ccccc2)c1=O was read as AID504770 -0.55 and CapD inh 73.
CCn1cc(C(=O)NCCc2ccccc2)c(=O)c2cc(S(=O)(=O)N3CCC(C)CC3)ccc21 was read as AID504770 -0.8 and CapD inh -0.79.
COc1ccc(-n2c(=S)[nH]c(=O)c3cccnc32)cc1 was read as CapD inh -0.34.
For COc1ccc(Nc2cc(C)ncn2)cc1 the results were AID504770 -1.1 and CapD inh -0.99.
Screening CCN1C(=O)C2(c3ccccc31)c1c(oc3ccccc3c1=O)C(=O)N2CC1CCCO1 (centres undefined) returned AID504770 0.5 and CapD inh -0.15.
Screening CS(=O)(=O)Nc1ccc(C(=O)N2CC(=O)Nc3ccccc32)cc1 returned AID504770 -0.4.
CN(C(=O)c1ccccc1)c1ccc(C(O)(C(F)(F)F)C(F)(F)F)cc1 was read as AID504770 -0.5 and CapD inh -3.8.
Screening CN(C)C=C1C(=O)CC(c2ccc(Cl)cc2)CC1=O (centres undefined) returned AID504770 2.2 and CapD inh 0.14.
CC(C)c1ccc(NC(=S)Nc2ccccc2Cl)cc1 was read as CapD inh -0.33.
For CCN=C1S/C(=C\c2ccc(-c3ccc(Cl)c([N+](=O)[O-])c3)o2)C(=O)N1CC the results were CapD inh 0.18.
For N#Cc1cccnc1NNC(=O)CCC(=O)O the results were AID504770 2 and CapD inh 0.27.
`CCOC(=O)c1sc(NC2=NCCCCC2)nc1C` gave AID504770 -0.8 and CapD inh -0.22.
For N#C/C(=N\Nc1cccc(Cl)c1)C(=O)c1ccco1 the results were AID504770 0.3 and CapD inh -3.5.
For COc1ccc2nc(NC(=O)CNC(=O)Cn3cnc4sc(C)c(C)c4c3=O)sc2c1 the results were CapD inh -0.23.
For CCCNC(=O)c1cc(CCC)on1 the results were AID504770 0.15 and CapD inh -0.96.
`c1coc(C2Nc3cccc4cccc(c34)N2)c1` gave AID504770 0.9.
CCN(CC)C(=O)Oc1cc(C)nc(-c2ccc(F)c(Cl)c2)n1 was read as AID504770 -0.3 and CapD inh 0.02.
Cc1ccc(C)c(S(=O)(=O)/N=C(\c2ccccc2)N(C)C)c1 was read as AID504770 0.35 and CapD inh -0.24.
Screening COC(=O)c1sc(NC(=O)COc2ccc(OC)cc2)c(C#N)c1C returned AID504770 -0.5 and CapD inh 2.5.
For O=C(CCSc1ccc(Cl)cc1)NCc1ccncc1 the results were AID504770 -0.75 and CapD inh 0.24.
Cc1ccc(C)c(S(=O)(=O)N/N=C/c2ccc3c(c2)OCO3)c1 was read as AID504770 -0.95.
Screening Cn1c(=O)c(C#N)cn(-c2ccccc2)c1=O returned CapD inh -0.36.
For Ic1ccc2nc(-c3ccccc3)c(-c3ccccc3)nc2c1 the results were CapD inh -0.51.
`Cc1[nH]c2ccccc2c1/C=N\NC(=O)Cn1nnc(-c2ccccc2)n1` gave AID504770 -0.35.
Screening O=C(COC(=O)/C=C/c1ccccc1)NC1CC1 returned AID504770 -0.05.
`CCN(CC)S(=O)(=O)c1ccc(-c2csc(=Nc3ccc(C)cc3)n2C)cc1` gave AID504770 2.5 and CapD inh 0.04.
`O=S(N=C(c1ccccc1)c1ccccc1)c1ccccc1` (centres undefined) gave AID504770 -0.75 and CapD inh -0.18.
For O=C(C1CCN(S(=O)(=O)c2ccc3nc(-c4ccccc4)[nH]c3c2)CC1)N1CCCCC1 the results were AID504770 0.65 and CapD inh -1.3.
For COc1c2ccccc2c(OC)c2ccccc12 the results were AID504770 -0.1 and CapD inh 5.9.
`O=C(CCc1ccc(S(=O)(=O)N2CCCCCC2)cc1)NC1=NCCS1` gave AID504770 1.4.
`C#CC1(n2c(-c3ccccc3)nc3ccccc3c2=O)CCCCC1` gave CapD inh 1.1.
Screening COc1ccc(-n2ncc3c2ncn2nc(COc4ccccc4C)nc32)cc1 returned AID504770 0.2 and CapD inh 1.1.
FC(F)(F)c1cnc(N2CCSCC2)c(Cl)c1 was read as CapD inh 0.1.
Screening CC(C)(CNS(=O)(=O)c1ccc(Cl)cc1)SCc1ccc(F)cc1 returned CapD inh -0.37.
CCOC(=O)C1CCCN(C(=O)c2ccc(CS(=O)(=O)Cc3ccccc3C)o2)C1 (centres undefined) was read as AID504770 -2.4 and CapD inh 0.64.
`Cc1nc(N2CCOCC2)nc(Nc2cccc(Cl)c2)c1[N+](=O)[O-]` gave CapD inh 0.005.
Screening CC(=O)Oc1c(C)cc(C)c2ccc(C)nc12 returned AID504770 0.05 and CapD inh -0.015.
`O=C(Nc1c(C(=O)c2ccccc2)oc2ccccc12)c1ccccc1F` gave AID504770 -0.25 and CapD inh 0.85.
`Cc1nn(CCC#N)c(C)c1Oc1ccccc1O` gave AID504770 0.05 and CapD inh -0.57.
Screening O=C(CSc1nnc2scc(-c3ccc(Cl)cc3)n12)c1ccc2c(c1)OCO2 returned AID504770 -0.25 and CapD inh 0.02.
CN1C(=O)/C(=C\c2ccc(Cl)cc2Cl)OC1=S was read as AID504770 -0.95 and CapD inh 23.
COc1cc(/C=N/NC(=O)c2ccoc2C)ccc1OCC(=O)N1C(C)CCCC1C (centres undefined) was read as AID504770 -0.15.
CCCCCCCC1C(=O)NC(=S)N(c2ccccc2)C1=O (centres undefined) was read as CapD inh -0.78.
`O=C1CCCC2=C1C(c1cc(Br)ccc1O)C1=C(N2)c2ccccc2C1=O` (centres undefined) gave CapD inh -0.54.
Screening O[C@@H]1C2C3CC4C5C3C1C5[C@@H](O)C42 (some centres undefined) returned CapD inh -0.12.
Screening O=C(c1ccccc1)N1CCN(C2c3cccc4cccc(c34)C2NS(=O)(=O)c2ccccc2)CC1 (centres undefined) returned CapD inh -0.45.
Screening CNC(=O)COC(=O)c1cccn1C returned AID504770 0.25.
Screening COc1ccc(C2(O)CN(c3cccc(C)c3)C3=[N+]2CCCS3)cc1OC (centres undefined) returned CapD inh -0.39.
`O=C(NCC1CCCO1)N1CCOCC1` (centres undefined) gave AID504770 -0.75 and CapD inh 0.55.
Screening CC(C(=O)Nc1ccc(S(N)(=O)=O)cc1)N(C)Cc1ccccc1F (centres undefined) returned AID504770 -0.55.
`COC(=O)C(Cc1cccc(C)n1)(c1ccccc1)c1ccccc1` gave CapD inh -0.46.
Screening CC1=CC(C)C2C(=O)N(Cc3ccc[n+](C)c3)C(=O)C2C1 (centres undefined) returned AID504770 -0.85 and CapD inh -1.1.

Among those listed so far, these have bromine.
`Cc1ccc(/C=C2\C(=O)Nc3ccc(Br)cc32)o1` gave AID504770 1.1 and CapD inh -0.36.
`O=C1CCCC2=C1C(c1cc(Br)ccc1O)C1=C(N2)c2ccccc2C1=O` (centres undefined) gave CapD inh -0.54.

(further entries)
For O=C1CCC(C(=O)Nc2sc3c(c2-c2nc4ccccc4[nH]2)CCCC3)=NN1 the results were AID504770 0.45.
`Cc1ccc2nc(-c3cccc4ccccc34)[nH]c2c1` gave AID504770 -0.65 and CapD inh 84.
For Cc1ccc(C(=O)COC(=O)c2cc3cc(Br)ccc3oc2=O)cc1 the results were AID504770 -0.1 and CapD inh 0.01.
Screening CCOC(=O)N1CCC(NC(=O)CNC(=O)c2cccs2)CC1 returned AID504770 -0.05.
Screening O/N=C/c1ccn(-c2ccc(Br)cc2)c1 returned AID504770 -0.2 and CapD inh -0.74.
`CC(=O)N1CCC(N(C(=O)Nc2ccc(C)c(C)c2)C(C)C)CC1` gave AID504770 -0.2 and CapD inh 0.88.
O=C(Nc1ccc(SCc2nc(OCC(F)(F)F)cc(OCC(F)(F)F)n2)cc1)C(c1ccccc1)c1ccccc1 was read as CapD inh -0.52.
For COCCNC(=O)CN1C(=O)COc2ccccc21 the results were AID504770 0.05 and CapD inh -0.14.
Screening CCOC(=O)N1CCC(N2Cc3cccc(C(=O)NCCCN4CCCC4=O)c3C2=O)CC1 returned AID504770 0.05 and CapD inh -0.4.

Structural class, those above with two or more sulfur atoms
CC(C)C(C(=O)O)N1C(=O)/C(=C/c2ccc(Cl)cc2Cl)SC1=S (centres undefined) was read as CapD inh -1.2.
`CN(C)S(=O)(=O)c1ccc(S(=O)(=O)N2CCN(C=O)CC2)cc1` gave AID504770 0.65.
`O=C(CN1C(=O)CSC1=O)CN1C(=O)CSC1=O` gave AID504770 2.1.
Cc1cc(-c2ccc(S(=O)(=O)NCCN3CCCC3)s2)n[nH]1 was read as AID504770 -0.65 and CapD inh 1.2.
Screening CC1(C)Cc2c(sc3nc(SCC#N)n(-c4ccccc4)c(=O)c23)CO1 returned CapD inh -0.005.
`Cc1ccc(S(=O)(=O)c2nc(S(C)(=O)=O)sc2NC2CCS(=O)(=O)C2)cc1` (centres undefined) gave AID504770 -0.35.
For COc1ccc2nc(NC(=O)CNC(=O)Cn3cnc4sc(C)c(C)c4c3=O)sc2c1 the results were CapD inh -0.23.
`CCN(CC)S(=O)(=O)c1ccc(-c2csc(=Nc3ccc(C)cc3)n2C)cc1` gave AID504770 2.5 and CapD inh 0.04.
`O=C(CCc1ccc(S(=O)(=O)N2CCCCCC2)cc1)NC1=NCCS1` gave AID504770 1.4.
Screening CC(C)(CNS(=O)(=O)c1ccc(Cl)cc1)SCc1ccc(F)cc1 returned CapD inh -0.37.
Screening O=C(CSc1nnc2scc(-c3ccc(Cl)cc3)n12)c1ccc2c(c1)OCO2 returned AID504770 -0.25 and CapD inh 0.02.
